MITF inh – inhibitors of MITF; TRPM1 promoter luciferase, luminescence, 24 h; inhibition, % (test concentration not listed); actives 0.28% (n = 37,000); AID 2240;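 active = most replicates at 85% or more, or half of them and the mean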;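 note: human melanocyte line stably carrying TRPM1 promoter luciferase reporter; 0% = vehicle wells and 100% = a positive control; the first replicate is given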
Hedgehog inh – Sonic Hedgehog pathway inhibition; Shh-LIGHT2 Gli-luciferase reporter, 30 h; inhibition, % (concentration not given with the values); actives 2.1% (n = 22,000); AID 2313;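 active = replicate mean of 65% or more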;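 note: pathway switched on by Shh-conditioned medium diluted 1 in 25 in low serum; 100 nL library stock added to about 40 µL; 0% = median of neutral wells and 100% = positive control level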
YB-1 expression – YB-1 expression inhibition; delta delta Cp (YB-1 minus CDIP) (test concentration not listed); U2OS, qRT-PCR YB-1 vs CDIP delta delta Cp, 16 h; active compounds read high; zero = DMSO, each unit about twofold; actives 0.37% (n = 30,000);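 active = delta delta Cp rounded down to an integer at or above 3, about 3 SD of DMSO wells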;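 note: higher means less YB-1 transcript or more CDIP transcript relative to DMSO; stock transfer was 100 nL into about 100 µL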
PD-1 reverse act – activators reversing PD-1 mediated T-cell inhibition; primary human CD4 T cells, PD-L1 beads, CellTiter-Glo 96 h; activation, % (test concentration not listed); 29,000 tested, under 10 active; AID 2316;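 active = replicate mean of 50% or more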;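 note: 0% = median vehicle wells and 100% = positive control; 100 nL library stock added to about 50 µL; numbers are from one replicate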
* hit, by the source's call; . = no result given. The list is partial; the hit share may differ from the screen's.

SMILES | MITF inh | Hedgehog inh | YB-1 expression | PD-1 reverse act
O=C(COc1ccc([N+](=O)[O-])cc1)Nc1cccnc1 | -14 | . | . | 0.7
O=C(O)c1c2c(nc3ccccc13)CCC(c1ccccc1)C2 (stereo not given) | -5 | . | -0.024 | 1.3
O=C(CC1NCCNC1=O)Nc1cccc(C(F)(F)F)c1 (stereo not given) | -4 | . | . | 2.5
Cc1ccc(S(=O)(=O)N(C)C[C@@H]2Oc3ccc(NC(=O)CCC(F)(F)F)cc3C(=O)N([C@@H](C)CO)C[C@@H]2C)cc1 | 5 | -16 | -0.049 | 1.0
COc1ccc(NC(=O)N(C)C[C@@H]2Oc3ccc(NC(=O)Cn4cnnn4)cc3C(=O)N([C@H](C)CO)C[C@H]2C)cc1 | -3 | . | 0.12 | 2.8
O=C(Nc1ccc2c(c1)OCO2)C(=S)NCc1ccccc1 | -39 | 5 | -0.057 | 0.4
C[C@@H]1CN([C@H](C)CO)C(=O)c2cc(NC(=O)C3CC3)ccc2O[C@@H]1CN(C)C | 3 | -49 | -0.18 | .
CCC/C=C/C=C/C1CC(O)C(O)C1C(=O)O (stereo not given) | -11 | -18 | 0.14 | 2.1
C[C@@H]1CN([C@H](C)CO)C(=O)c2cc(NS(=O)(=O)c3ccc(F)cc3)ccc2O[C@@H]1CN(C)C(=O)Nc1ccc2c(c1)OCO2 | -8 | . | 0.003 | -1.3
C[C@@H]1CN([C@H](C)CO)C(=O)c2cccc(NC(=O)c3ccncc3)c2O[C@@H]1CN(C)S(=O)(=O)c1ccc(F)cc1 | -30 | 36 | -0.014 | .
C[C@@H]1CCCCO[C@H](CN(C)Cc2ccccc2)[C@@H](C)CN([C@H](C)CO)C(=O)c2cc(NS(=O)(=O)c3ccc(F)cc3)ccc2O1 | -4 | 12 | -0.049 | .
C[C@H](CO)N1C[C@H](C)[C@H](CN(C)Cc2ccc(C(=O)Nc3ccccc3N)cc2)Oc2c(cccc2N(C)C)C1=O | 24 | . | 0.55 | 0.1
Cc1ccc(S(=O)(=O)Nc2ccc3c(c2)C(=O)N([C@@H](C)CO)C[C@@H](C)[C@H](CN(C)Cc2ccc(C(=O)Nc4ccccc4N)cc2)O3)cc1 | 2 | . | 0.18 | 1.9
C=CCNC(=O)N1CC(Oc2ccc(Cl)cc2)C1 | -35 | 4 | -0.32 | 0.4
COC(=O)c1cc(O)cc(OC)c1Oc1cc(C)cc(O)c1C(=O)OC | -10 | -15 | -0.39 | 0.6
O=C(c1ccccc1NS(=O)(=O)c1ccccc1[N+](=O)[O-])N1CCOCC1 | -12 | . | . | 0.4
Cc1ccc(S(=O)(=O)N(C)C[C@@H]2Oc3ccc(NC(=O)Nc4ccc5c(c4)OCO5)cc3C(=O)N([C@H](C)CO)C[C@H]2C)cc1 | -23 | . | 0.011 | 4.4
CCC(Sc1nnc(N)s1)C(=O)Nc1sc2c(c1C#N)CCCC2 (stereo not given) | -30 | . | . | 0.7
COc1ccc([C@@H]2Oc3c(OC)cc(CCCO)cc3[C@H]2CO)cc1OC | 35 | 2 | -0.36 | -0.7
Cc1sc2nc(SCc3cc(=O)[nH][nH]3)nc(N)c2c1C | -11 | . | . | 0.1
C[C@H]1CN([C@@H](C)CO)C(=O)Cc2cc(NS(=O)(=O)c3cccs3)ccc2O[C@H]1CN(C)Cc1ccc(-c2ccccc2)cc1 | 16 | -10 | -0.23 | -2.0
CC(C)NC(=O)Nc1cccc2c1O[C@H](CN(C)S(=O)(=O)c1ccccc1)[C@@H](C)CN([C@@H](C)CO)C2=O | 0 | -7 | -0.21 | 0.5
C[C@@H]1CN([C@H](C)CO)C(=O)c2cc(NC(=O)CCCN(C)C)ccc2O[C@@H]1CN(C)S(=O)(=O)c1ccc(F)cc1 | 5 | 6 | -0.3 | 0.7
CC(=O)c1cccc(NC(=O)CCN2C(=O)C3CC=C(Cl)CC3C2=O)c1 (stereo not given) | -11 | . | . | 2.0
Cc1ncc([N+](=O)[O-])n1CC(O)CCl (stereo not given) | 0 | 19 | 0.47 | -0.6
CC(C)NC(=O)Nc1ccc2c(c1)CC(=O)N([C@H](C)CO)C[C@@H](C)[C@@H](CN(C)Cc1ccc(C(=O)O)cc1)O2 | -7 | . | 0.19 | 0.4
Cc1ccc(C23CC4CC(CC(C(=O)NC5=NCCS5)(C4)C2)C3)cc1 | 2 | -27 | -0.12 | -0.8
Cc1cccc(OCC(=O)Nc2ccc3oc(-c4ccncc4)nc3c2)c1 | -20 | . | . | -0.2
COc1ccc(CCNC(=O)C(=O)c2c(-c3ccccc3)[nH]c3ccccc23)cc1OC | 15 | . | . | -2.1
C[C@@H]1CN([C@H](C)CO)C(=O)c2cc(NS(=O)(=O)c3cn(C)cn3)ccc2O[C@H]1CN(C)CC1CC1 | 10 | -46 | -0.32 | 2.2
Cn1c(SCC(=O)O)nnc1-c1ccccc1 | -6 | . | . | 0.8
CN1/C(=C2/SC(=S)N(c3ccccc3)C2=O)Sc2ccccc21 | -11 | -13 | -0.05 | -0.3
COc1ccc(S(=O)(=O)N(C)C[C@H]2Oc3ccc(NS(=O)(=O)c4ccc(C)cc4)cc3CC(=O)N([C@@H](C)CO)C[C@H]2C)cc1 | -13 | 0 | -0.19 | 1.6
COc1ccc(OC)c(C(=O)CSc2nnc(-c3ccccc3F)n2-c2ccccc2)c1 | 3 | . | . | 1.7
COC(=O)C(C)Sc1nnc2c3ccccc3n(Cc3ccccc3)c2n1 (stereo not given) | -10 | . | . | -4.7
Cc1sc2ncnc(SCC(=O)N3CCOCC3)c2c1-c1ccc(Cl)cc1 | -1 | . | . | -2.3
Cc1noc(C)c1NC(=O)Nc1ccc2c(c1)C(=O)N([C@H](C)CO)C[C@H](C)[C@@H](CN(C)C(=O)Nc1ccccc1)OCCCC[C@@H](C)O2 | -1 | -34 | -0.34 | .
CS(=O)(=O)c1sc(C(=O)Nc2ccccc2Cl)c2c1C=CCC2 | -8 | 12 | 0.45 | -2.1
CNC[C@@H]1Oc2c(NS(=O)(=O)c3ccc(C)cc3)cccc2C(=O)N([C@@H](C)CO)C[C@@H]1C | -2 | -14 | -0.033 | .
C[C@H](CO)N1C[C@H](C)[C@@H](CN(C)C(=O)Nc2ccc3c(c2)OCO3)Oc2ccc(NS(=O)(=O)c3ccc(F)cc3)cc2C1=O | 14 | -7 | -0.068 | -0.2
CCOC(=O)[C@H](CCc1ccccc1)N[C@H](C)C(=O)N1C2CCCCC2C[C@H]1C(=O)O (stereo not given in full) | -46 | -1 | 0.15 | .
Cc1noc(C)c1S(=O)(=O)Nc1cccc2c1O[C@@H](CN(C)CC1CCCCC1)[C@@H](C)CN([C@@H](C)CO)C2=O | -12 | -30 | 0.31 | .
CC(=O)c1cccc(N(CC(=O)O)S(C)(=O)=O)c1 | -4 | . | . | 3.1
COc1cc(/C=C/C(=O)OC2CC3CCC2(C)C3(C)C)ccc1O (stereo not given) | -86 | 2 | -0.011 | -1.6
C[C@H](CO)N1C[C@H](C)[C@H](CN(C)CC2CC2)Oc2c(NS(=O)(=O)c3cn(C)cn3)cccc2C1=O | 0 | 9 | 0.22 | 0.6
CC(C)(C)c1ccc(S(=O)(=O)NCc2cccnc2)cc1 | 23 | . | . | 1.3
CNC[C@@H]1Oc2ccc(NC(=O)c3ccncc3)cc2C(=O)N([C@@H](C)CO)C[C@H]1C | 3 | -25 | -0.48 | 0.3
COc1ccc(S(=O)(=O)Nc2cccc3c2O[C@H](CN(C)Cc2ccc(C(F)(F)F)cc2)[C@H](C)CN([C@@H](C)CO)C3=O)cc1 | -11 | 18 | -0.31 | -0.6
CCN(CC)C(=S)Oc1ccc(I)cc1 | -41 | -38 | 0.18 | 0.6
CNC[C@@H]1Oc2ccc(NC(=O)Cn3cnnn3)cc2CC(=O)N([C@H](C)CO)C[C@@H]1C | -8 | -16 | -0.02 | 0.4

Full records, quoted from the list. Order of screens: MITF inh, Hedgehog inh, YB-1 expression, PD-1 reverse act
CC(C)(C)c1ccc(S(=O)(=O)NCc2cccnc2)cc1 reads 23, ., ., 1.3
CCOC(=O)[C@H](CCc1ccccc1)N[C@H](C)C(=O)N1C2CCCCC2C[C@H]1C(=O)O (stereo not given in full) reads -46, -1, 0.15, .

Compounds from the list above that contain an aryl methoxy group, in the order listed:
SMILES | MITF inh | Hedgehog inh | YB-1 expression | PD-1 reverse act
COc1ccc(NC(=O)N(C)C[C@@H]2Oc3ccc(NC(=O)Cn4cnnn4)cc3C(=O)N([C@H](C)CO)C[C@H]2C)cc1 | -3 | . | 0.12 | 2.8
COC(=O)c1cc(O)cc(OC)c1Oc1cc(C)cc(O)c1C(=O)OC | -10 | -15 | -0.39 | 0.6
COc1ccc([C@@H]2Oc3c(OC)cc(CCCO)cc3[C@H]2CO)cc1OC | 35 | 2 | -0.36 | -0.7
COc1ccc(CCNC(=O)C(=O)c2c(-c3ccccc3)[nH]c3ccccc23)cc1OC | 15 | . | . | -2.1
COc1ccc(S(=O)(=O)N(C)C[C@H]2Oc3ccc(NS(=O)(=O)c4ccc(C)cc4)cc3CC(=O)N([C@@H](C)CO)C[C@H]2C)cc1 | -13 | 0 | -0.19 | 1.6
COc1ccc(OC)c(C(=O)CSc2nnc(-c3ccccc3F)n2-c2ccccc2)c1 | 3 | . | . | 1.7
COc1cc(/C=C/C(=O)OC2CC3CCC2(C)C3(C)C)ccc1O (stereo not given) | -86 | 2 | -0.011 | -1.6
COc1ccc(S(=O)(=O)Nc2cccc3c2O[C@H](CN(C)Cc2ccc(C(F)(F)F)cc2)[C@H](C)CN([C@@H](C)CO)C3=O)cc1 | -11 | 18 | -0.31 | -0.6

High-throughput results: PubChem BioAssay, Broad Institute
